Source: PubChem (ICCB-Longwood Screening Facility, Harvard Medical School)
HCMV NEC inh: inhibitors of HCMV UL50-UL53 interaction, biochemical, HTRF; HCMV UL50-UL53 nuclear egress complex (human cytomegalovirus); normalized percent inhibition; inhibition, % (test concentration not listed); 0.15% of 190,000 active; AID 1918969, 2023;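 active = both replicates at 50% or more, plus weaker picks with an unusually low signal ratio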;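 note: stock transfer was 100 nL into about 20 µL; 0% = negative control wells and 100% = wells with untagged competitor protein; inactives centre near -12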
GIV Gai3 FP: inhibitors of GIV peptide binding to Galpha-i3, primary screen, biochemical, fluorescence polarization, FITC-GIV GBA peptide, rat Galphai3 | percent of control (FP), % (test concentration not listed) | 0.42% of 210,000 active | 90 min; hits give low values; scaled: aluminum fluoride 0%, vehicle 100% | Guanine nucleotide-binding protein G(i) subunit alpha-3 (Rattus norvegicus), P08753 | AID 1224905, 2016;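 active = replicate mean at 85% of control or lower, very high polarization wells dropped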;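 note: wells of about 15 µL received 100 nL stock; the first replicate is given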
Target sequence (P08753 whole entry, looked up): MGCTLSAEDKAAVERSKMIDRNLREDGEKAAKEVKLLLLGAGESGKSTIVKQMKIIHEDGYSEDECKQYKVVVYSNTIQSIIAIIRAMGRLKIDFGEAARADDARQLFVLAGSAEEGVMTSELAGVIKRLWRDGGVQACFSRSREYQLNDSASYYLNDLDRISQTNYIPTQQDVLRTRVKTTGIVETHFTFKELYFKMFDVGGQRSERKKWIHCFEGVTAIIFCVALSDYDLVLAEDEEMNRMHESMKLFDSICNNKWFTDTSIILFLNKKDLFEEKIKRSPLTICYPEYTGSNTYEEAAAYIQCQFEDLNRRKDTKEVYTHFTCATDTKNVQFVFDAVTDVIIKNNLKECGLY
Sa growth inh: S. aureus growth inhibition at 42 and 30 °C, primary screen, LtaS inhibitor project, RN4220, two temperatures. AID 720641, 2013. OD600, 20 h, 42 °C; hits give low values. 0.53% of 170,000 active. relative growth, % (no concentration beside the values);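 active = growth at 42 °C up to 50% and 20 or more points under that at 30 °C, or under 10% at both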;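 note: 300 nL library stock went into each well; scaled to the means of positive and negative controls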
Sa growth inh second temp: also measured in Sa growth inh; calls as there; relative growth, %; measured here: growth at 30 °C;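 optical density after 20 h as mean of two plates; 100% = untreated growth and lower means inhibition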
Active calls of the source: *; . = not tested or not shown; & = joins results of further samples.

SMILES	HCMV NEC inh	GIV Gai3 FP	Sa growth inh	Sa growth inh second temp
Cc1csc(Sc2ccc(S(=O)(=O)N3CCCC3)cn2)n1	-9	.	96	101
CSc1nnc(-c2ccc(S(=O)(=O)N=S(C)(=O)c3ccc(Cl)cc3)s2)n1C (stereo unspecified)	-24	106	94	90
COc1ccc(OC)c2[nH]c(=O)c(CCNC(=O)c3ccco3)cc12	-7	96	96	79
CC(C)C(=O)N(Cc1cccnc1)Cc1cc2ccccc2[nH]c1=O	-14	96	93	84
Cc1cc(C)nc(-n2nc(C)cc2NC(=O)c2ccc(F)cc2F)n1	-12	.	90	83
Cc1ccc(N2C(=O)c3ccncc3C2=O)c(C)c1	5	100	.	.
CC12CC=CCC1C(=O)N(CCC(=O)O)C2=O (stereo unspecified)	-4	99	100	95
COc1cc(OC)c(NC(=O)Cn2cc(C(=O)c3ccncc3)c(=O)c3cc(Cl)ccc32)cc1Cl	-14	109	.	.
CC(C)Oc1ccccc1C(=O)NC(CO)C(=O)O (stereo unspecified)	6	.	100	90
COc1ccccc1OC(C)C(=O)NCC1(N2CCOCC2)CCCCC1 (stereo unspecified)	5	100	107	92
Cn1nccc1C(=O)Nc1cc(Cl)ccc1Cl	-30	102	107	93
COc1ccccc1N1CCN(C(=O)c2ccc3c(c2)CCN3S(=O)(=O)c2ccccc2)CC1	-7	107	105	84
COC(=O)CCSc1nc2sc3c(c2c(=O)n1Cc1ccccc1)CCC(C(C)(C)C)C3 (stereo unspecified)	-30	110	103	88
C/C(Cc1ccccc1)=N\NC(=O)c1cc(C(C)(C)C)[nH]n1	11	94	100	113
CC(C)Cc1nn2cc(-c3cccc(Br)c3)nc2s1	8	101	102	92
C=C1C(C(=O)Nc2ccccc2)C1C(=O)Nc1ccccc1 (stereo unspecified)	-10	.	96	89
CCOc1cc(/C=C2\SC(=NC)N(C)C2=O)c(Br)cc1OC(C)=O	-47	104	81	36
O=C(CN1C(=O)COc2ccccc21)c1ccc(Cl)cc1	-18	101	131	94
Cc1nnc(N2CCN(c3ccccc3F)CC2)c2c1nnn2Cc1ccc(F)cc1	-31	99	95	89
O=C(CS(=O)(=O)c1c[nH]c2ccccc12)N1CCc2ccccc21	-7	101	121	82
Fc1ccccc1-c1nc(-c2cccs2)c(-c2cccs2)[nH]1	2	111	106	91
CCCCC(=O)N1CC(=O)Nc2ccc(F)cc2C1c1ccc(F)cc1 (stereo unspecified)	-12	102	102	91
Oc1[nH]c2c(Cl)cc(Cl)cc2c1N=C1N=c2ccccc2=N1	22	.	72	39
CCCCC(=O)OC1=C(C(=O)c2ccccc2)N(CC)S(=O)(=O)c2ccccc21	6	94	15	24
CCc1ccc(NC(=O)N2CC(C)Oc3ccc(C)cc32)cc1 (stereo unspecified)	14&-4	106&100	70	108
COc1ccc(CCN2CC(C(=O)NCc3ccc(F)cc3)CC2=O)cc1OC (stereo unspecified)	.	111	100	88
CC(=O)Nc1ccc(NC(=O)CC(c2ccccc2)c2ccccc2)cc1	-2	.	94	94
CCCSc1nnc(NC(=O)c2cc(=O)c3ccccc3o2)s1	-42	103	88	81
Cc1ccc(-c2nn(CCC(=O)O)cc2/C=C2\SC(N)=NC2=O)cc1	.	104	85	79
C=CCn1c(=O)c2ccc(C(=O)NCc3ccc4c(c3)OCO4)cc2n(CC(=O)Nc2ccc(F)cc2F)c1=O	8	100	.	.
CCOc1ccc(CCNC(=O)C2CCC(CNS(=O)(=O)c3ccc(Cl)cc3)CC2)cc1OCC (stereo unspecified)	.	102	107	84
Cc1ccc(/C=C/C(=O)N2CCN(c3ncc(C(F)(F)F)cc3Cl)CC2)o1	-17	.	93	88
Cc1ccc(Cl)cc1N1CCN(C(=O)C(C)n2ncn3cccc3c2=O)CC1 (stereo unspecified)	-1	98	88	100
CCc1nc2c(cnn2-c2ccccc2)c(=O)n1CCc1ccccc1	1	.	104	109
OCC1OC(Oc2ccc3cc(Br)ccc3c2)C(O)C(O)C1O (stereo unspecified)	-42	102	113	95
Cc1ccc(N2CCN(S(=O)(=O)c3ccc(F)c(C(=O)Nc4ccc(Cl)cc4Cl)c3)CC2C)cc1 (stereo unspecified)	.	106	117	99

Five neighbouring compounds already listed, quoted:
SMILES	HCMV NEC inh	GIV Gai3 FP	Sa growth inh	Sa growth inh second temp
Cc1ccc(/C=C/C(=O)N2CCN(c3ncc(C(F)(F)F)cc3Cl)CC2)o1	-17	.	93	88
Cc1ccc(Cl)cc1N1CCN(C(=O)C(C)n2ncn3cccc3c2=O)CC1 (stereo unspecified)	-1	98	88	100
CCc1nc2c(cnn2-c2ccccc2)c(=O)n1CCc1ccccc1	1	.	104	109
OCC1OC(Oc2ccc3cc(Br)ccc3c2)C(O)C(O)C1O (stereo unspecified)	-42	102	113	95
Cc1ccc(N2CCN(S(=O)(=O)c3ccc(F)c(C(=O)Nc4ccc(Cl)cc4Cl)c3)CC2C)cc1 (stereo unspecified)	.	106	117	99

Additional records follow.
SMILES	HCMV NEC inh	GIV Gai3 FP	Sa growth inh	Sa growth inh second temp
CC1(C)CC(=O)C2=C(C1)OC1=C(C(=O)CC(C)(C)C1)C2c1ccccc1F	3	107	.	.
O=C(Oc1ccc(F)cc1Cl)c1cc2ccccc2s1	.	98	100	92
COc1ccc(CCNc2ncnc3scc(-c4ccccc4)c23)cc1OC	-3	106	.	.
COc1cc(-c2csc(NCC3CCCO3)n2)cc(OC)c1OC (stereo unspecified)	-41	.	89	97
COc1ccccc1N1CCN(S(=O)(=O)c2ccc3[nH]c4c(c3c2)CCCCC4)CC1	10	107	105	98
CCc1ccc(CNC(=O)CN2C(=O)C3CCCCN3c3ccc(C(=O)N4CCCC4)cc32)cc1 (stereo unspecified)	.	101	92	86
CCN1CCOC(CC(=O)Nc2ccccc2)C1=O (stereo unspecified)	-6	102	63	32
N#Cc1c(/N=C/c2cccn2-c2ccc(S(N)(=O)=O)cc2)sc2c1CCCC2	.	110	68	37
CN(C)c1ccc(C2C3=C(CC(C)(C)CC3=O)Nc3ccccc3N2C(=O)Cc2ccccc2)cc1 (stereo unspecified)	-10	105	.	.
CCn1c(Cc2ccccc2)nnc1SCC(=O)c1ccc2[nH]c(=O)[nH]c2c1	-16	.	114	81
CCN(C(=O)Cn1c(=O)n(-c2ccccc2)c(=O)c2ccc(C(=O)NCc3ccc4c(c3)OCO4)cc21)c1cccc(C)c1	-16	102	129	105
NS(=O)(=O)c1ccc(CCNC(=O)CSc2ncccc2C(=O)O)cc1	7	106	82	85

Among those listed so far, these contain a COOH group.
SMILES	HCMV NEC inh	GIV Gai3 FP	Sa growth inh	Sa growth inh second temp
CC12CC=CCC1C(=O)N(CCC(=O)O)C2=O (stereo unspecified)	-4	99	100	95
CC(C)Oc1ccccc1C(=O)NC(CO)C(=O)O (stereo unspecified)	6	.	100	90
Cc1ccc(-c2nn(CCC(=O)O)cc2/C=C2\SC(N)=NC2=O)cc1	.	104	85	79
NS(=O)(=O)c1ccc(CCNC(=O)CSc2ncccc2C(=O)O)cc1	7	106	82	85

In another format: 2 of the compounds above.
> CC1(C)CC(=O)C2=C(C1)OC1=C(C(=O)CC(C)(C)C1)C2c1ccccc1F
  HCMV NEC inh = 3
  GIV Gai3 FP = 107
  Sa growth inh = .
  Sa growth inh second temp = .

> O=C(Oc1ccc(F)cc1Cl)c1cc2ccccc2s1
  HCMV NEC inh = .
  GIV Gai3 FP = 98
  Sa growth inh = 100
  Sa growth inh second temp = 92

More entries follow:
SMILES	HCMV NEC inh	GIV Gai3 FP	Sa growth inh	Sa growth inh second temp
CCOC(=O)c1cc2ccc(OCc3ccccc3)cc2oc1=O	.	103	93	85
Cc1nn(C)c(C)c1CCN(C)C(=O)Nc1ccc(Br)cc1	15	103	.	.
O=C(NCCc1ccccc1)C1c2ccccc2C(=O)N1C1CCCCCC1 (stereo unspecified)	-6	106	109	88
Cc1c2cnn(CC(=O)N3CCC(C)CC3)c(=O)c2c(C)n1Cc1ccccc1Cl	-9	98	.	.
CCC(C)Cn1c(/C=C/c2ccccc2)nc2ccccc21 (stereo unspecified)	-30	104	94	57
Cc1cc(C)cc(N2CC(C)Cn3c2nc2c3c(=O)n(CC(=O)O)c(=O)n2C)c1 (stereo unspecified)	-14	93	.	.
Cc1nnc(-c2cccc(C(F)(F)F)c2)nc1NC(C)(C)C	-5	102	.	.
CC1CCN(C(=O)c2cnn(-c3ccc(Cl)cc3)c2C2CCN(C(=O)OC(C)(C)C)CC2)CC1	.	100	84	86
COc1cccc(Sc2nc3ccccc3n3c(=O)n(CC(=O)NC4CCCC4)nc23)c1	0	102	.	.
Cc1ccc(-c2nc3cc(NC(=O)c4cc(Br)ccc4Cl)ccc3o2)cc1	3	100	100	86
O=C(CSCc1ccccc1)Nc1cccc(-c2cn3cccnc3n2)c1	.	101	69	56
CN1CCC(/C=C/c2cccs2)=N1	-81	129	90	85
[O-][n+]1onc2c(-c3ccc(Cl)cc3)nnc(-c3ccc(Cl)cc3)c21	2	.	78	96
CCc1nn2c(=O)cc(CN(CC)c3ccccc3)nc2s1	-11	110	.	.
COc1ccc(NC(=O)CC2C(=O)N(c3cccc(OC)c3)C(=O)N2Cc2cccnc2)cc1 (stereo unspecified)	.	108	95	89
COc1ccc(NC(=O)CN2C(=O)C(C)(C)c3cc(S(=O)(=O)N4CCCC4)ccc32)cc1OC	-35	105	.	.
CCSc1nccn2nc(-c3ccc(Br)cc3)cc12	-22	111	.	.
COc1ccc(C(=O)OCc2nc3ccccc3c(=O)n2CC#N)c(OC)c1OC	-1	.	95	91
COc1ccccc1C(=O)N=S1CCN(c2ncc(C(F)(F)F)cc2Cl)CC1	-27	103	94	87
CC1=NN(c2cccc(Br)c2)C(=O)/C1=C/c1ccc(-c2ccc3c(c2)C(=O)OC3)o1	1	101	.	.
O=C(c1ccc(CSc2nc3ccncc3n2Cc2ccccc2F)cc1)N1CCCCC1	-18	97	103	87
CCOC(=O)c1ccc(NC2SC(=O)N(Cc3cccc(C(=O)O)c3)C2=O)cc1 (stereo unspecified)	16	97	102	90
Cc1cccc2c(C(=O)Nc3cccc4nsnc34)cc(-c3ccccc3)nc12	0	98	.	.
N#CC(C#N)C(CC(=O)c1ccccc1)c1ccc2c(c1)OCO2 (stereo unspecified)	-12	101	83	74
c1coc(-c2nnc3n2CCCCC3)c1	-24	.	98	75
Cc1cc(/C=C2\SC(=Nc3ccccc3)NC2=O)c(C)n1-c1ccccc1	-25	90	.	.
COc1ccc(NC(=O)COc2ccc(/C=N/n3c(C)nnc3C)cc2OC)cc1	-40	.	87	85
CN(C)C(CNC(=O)c1cc2ccccc2oc1=O)c1ccco1 (stereo unspecified)	-71	103	107	88
Cc1nc2sc3c(c2c(=S)[nH]1)CCC3	-4	.	84	79
O=C(NCCc1ccc(F)cc1)C(=O)NCC(c1cccs1)S(=O)(=O)c1ccc(Cl)cc1 (stereo unspecified)	.	94	123	79
CC(C)CNc1c(Cl)cnn(C)c1=O	-26	103	103	79
COc1ccc(N2CCN(C(=O)CCn3c(=O)c4cccn4c4cccnc43)CC2)cc1	.	101	82	79
Cc1cccc(NC(=O)CO/N=C/c2ccc3c(c2)OCO3)c1	-23	.	109	89
COC(=O)c1c(NC(=O)N2CCCC2c2ccc(Cl)cc2)sc2c1CCCC2 (stereo unspecified)	-34	101	.	.
Cc1ccc(-n2ncc(C(=O)NCCc3ccsc3)c2C2CCN(C(=O)OC(C)(C)C)CC2)cc1C	.	104	84	95
COCCCNC(=O)c1ccc(Cn2c(=O)c3ccccc3n(CC(=O)Nc3ccc(C)cc3C)c2=O)cc1	-16	103	100	93
CC(C)(C)C(=O)Nc1ccc2c(c1)OCCO2	-1	108	100	98
O=C1CCC(C(=O)OCC(=O)NC23CC4CC(CC(C4)C2)C3)N1 (stereo unspecified)	-10	.	116	90
O=C(c1nnc(-c2ccccc2)o1)C1CCCC1	-21	.	81	50
CCn1c(-c2ccc3c(c2)OCCO3)cnc1SCC(=O)N1CCCC1=O	-17	.	85	95
